High-throughput results as filed in PubChem.
Ecoli rRNA inh = inhibitors of bacterial rRNA selective over humanized ribosomes; E. coli WT GFP vs humanized-ribosome RFP mutants, fluorescence, 24 h; hits give low values; DMSO median 0, no signal -100; AID 720706; GFP signal change (wild-type ribosome), % (no concentration beside the values); 350,000 compounds, 1.6% hits;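 active means significant combined selectivity score with lowered wild-type GFP, culture density cut under 30%, mutant RFP and density less affected; inactive means any of these conditions unmet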; further: one replicate is shown; some compounds called inactive have numbers as strong as hits
FGF22 binding = shifts melting point of recombinant human FGF22 | 340,000 compounds, 1.5% hits | AID 651658 | recombinant FGF22 thermal shift, SYPRO orange fluorescence; percent of sucrose octasulfate shift, DMSO zero | Q9HCT0 | calls only at 9.99 µM;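 active means melting point raised past a set limit in the mean and every replicate; three in four hits are not shown here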
ALR inh = inhibitors of human sulfhydryl oxidase ALR | purified ALR, DTT oxidation, H2O2 HRP-luminol luminescence | inhibition, % (test concentration not listed) | 290,000 compounds, 3.8% hits;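 active means mean and each replicate at 75% or more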;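 further: stock transfer was 7.5 nL into about 7.5 µL; 0% = neutral wells and 100% = wells with inactivated enzyme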
Target sequence (P55789 whole entry, looked up): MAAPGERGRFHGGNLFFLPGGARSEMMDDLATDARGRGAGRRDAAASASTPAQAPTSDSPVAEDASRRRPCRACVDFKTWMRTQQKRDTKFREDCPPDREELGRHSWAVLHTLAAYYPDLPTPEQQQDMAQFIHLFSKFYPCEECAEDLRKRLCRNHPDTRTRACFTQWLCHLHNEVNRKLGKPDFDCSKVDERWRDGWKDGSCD
UCH37 DUB inh = inhibitors of human deubiquitinating enzyme UCH37; Q9Y5K5; 330,000 compounds, 0.33% hits; purified proteasome/UCH37, Ub-AMC cleavage fluorescence; AID 588478; inhibition, % (concentration not given with the values);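 active means mean of two replicates above 20%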;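 further: 0% = compound-free wells with enzyme and 100% = wells lacking proteasome; stock transfer was 100 nL into about 20 µL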
Target sequence (Q9Y5K5 whole entry, looked up): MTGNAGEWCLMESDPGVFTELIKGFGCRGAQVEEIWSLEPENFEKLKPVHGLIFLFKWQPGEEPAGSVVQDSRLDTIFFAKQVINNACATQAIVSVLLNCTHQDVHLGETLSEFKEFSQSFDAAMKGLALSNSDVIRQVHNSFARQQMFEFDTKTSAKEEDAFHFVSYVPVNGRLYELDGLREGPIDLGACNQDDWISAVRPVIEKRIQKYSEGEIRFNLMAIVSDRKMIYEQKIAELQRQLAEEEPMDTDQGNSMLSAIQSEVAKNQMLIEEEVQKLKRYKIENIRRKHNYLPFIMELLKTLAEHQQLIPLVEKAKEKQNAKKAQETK
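Schedule: 30 min plus 25 min, room temperature / Material: human UCH37 within purified proteasomes / Technique: AMC fluorescence intensity at 355/460 nm / Buffer or medium: pH 7.4 Tris-HCl (50 mM) with ovalbumin, ATP-MgCl2, DTT / Controls: wells without proteasome as full block, compound-free enzyme plus substrate as uninhibited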
Ecoli growth = inhibitors of Escherichia coli growth; OD600, 23 h; hits give low values; OD600 absorbance (test concentration not listed); 330,000 compounds, 0.21% hits;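 active means OD600 absorbance below the run mean of sample wells minus 3.6 SD, in any replicate, cut at about 0.56 in these data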;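 further: stock transfer was 300 nL into about 60 µL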
HNF4A DNA FP = change in binding of human HNF4 alpha to DNA; 360,000 compounds, 0.3% hits; HNF4a-FITC DNA binding, fluorescence polarization, 1 h; activity change, % at 10 µM; P41235; in the data active means activity change above about 30%, passing the limit was not always enough;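 further: controls were the assay level and a saturating level of protein; the project sought stronger binding though the title names inhibitors; some compounds called inactive have numbers as strong as hits; positive values seem to mean higher polarization but the record does not say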
Target sequence (P41235 whole entry, looked up): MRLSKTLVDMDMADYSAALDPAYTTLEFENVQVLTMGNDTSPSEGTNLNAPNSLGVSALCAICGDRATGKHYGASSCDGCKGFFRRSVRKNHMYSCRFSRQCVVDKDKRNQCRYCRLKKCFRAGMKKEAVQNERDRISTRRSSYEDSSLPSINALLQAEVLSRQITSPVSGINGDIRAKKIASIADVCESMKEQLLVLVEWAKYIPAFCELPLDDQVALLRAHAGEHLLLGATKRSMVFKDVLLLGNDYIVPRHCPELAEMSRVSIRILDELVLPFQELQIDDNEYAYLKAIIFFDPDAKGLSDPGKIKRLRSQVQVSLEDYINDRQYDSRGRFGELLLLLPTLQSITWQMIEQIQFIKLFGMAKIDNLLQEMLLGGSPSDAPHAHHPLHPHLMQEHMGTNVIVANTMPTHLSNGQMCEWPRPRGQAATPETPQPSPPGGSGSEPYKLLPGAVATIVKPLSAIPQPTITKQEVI
Beta2AR agonist = activates human beta-2 adrenergic receptor causing internalization. P07550. Am2.2-beta2AR cells, FAP receptor internalization, flow cytometry; reference of the scale not given here. response, % (no concentration beside the values). 340,000 compounds, 0.43% hits;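 active means response above a set limit, near 3 SD of response in nonfluorescent compounds, cut at about 42% in these data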;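 further: stock transfer was 100 nL into about 11 µL; a reference agonist was the positive control; negative values mostly stem from fluorescent compounds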
Ecoli rRNA inh OD600 = recorded beside Ecoli rRNA inh, whose call it bears; OD600 change, %; measured here: OD600 growth;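 optical density of the mix in the first replicate; 0 = DMSO median and -100 = no signal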
Ecoli rRNA inh RFP = second read-out of Ecoli rRNA inh, no call of its own (marks repeat the call); RFP signal change, %; measured here: RFP humanized mutant strains;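 first replicate; 0 = DMSO median and -100 = no signal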
* marks the source's active call; other numbers are inactive results; i = inactive; . = no result given. An excerpt; count on the stated rates, not on these rows.

Ecoli rRNA inh,structure,Ecoli rRNA inh OD600,Ecoli rRNA inh RFP,FGF22 binding,ALR inh,UCH37 DUB inh,Ecoli growth,HNF4A DNA FP,Beta2AR agonist
0.2,CCC1=C(OC(=O)N(CC)CC)N2C(=O)OC(=NCCc3c[nH]c4ccccc34)[C@]2(C)[C@H]2C1=CC[C@H]1C(=O)NC(=O)[C@H]12,3.7,3.3,i,-21.0,-0.8,.,-1.6,-6.7
.,CCN1CCN(c2ccc(NC(=O)c3ccc4c(c3)OCO4)cc2)CC1,.,.,.,-13.7,3.3,0.607,0.4,5.1
.,Cc1ccc(SCc2cc(=O)n3[nH]cnc3n2)cc1,.,.,.,8.3,4.8,0.694,4.1,3.0
.,O=[n+]1cc(-c2ccc(F)cc2)n([O-])c2c1CCC2,.,.,.,-6.2,0.2,0.739,-0.5,-1.3
-6.8,CN(CC(=O)Nc1ccc(N2CCOCC2)cc1)C(=O)CCNC(=O)c1ccc(Br)cc1,-10.3,-0.4,i,96.4*,1.6,0.705,-3.1,-2.2
.,CCOC(=O)C1C(=O)CC(C)(O)C(C(=O)OCC)C1c1ccc(OCC)cc1 (stereo not drawn),.,.,.,-3.0,1.6,0.695,-0.4,3.8
4.3,NC(=O)c1nnn(-c2nonc2N)c1-c1ccc([N+](=O)[O-])cc1,3.6,-0.3,i,-15.5,0.6,0.648,-1.9,1.9
.,CCn1c(-c2ccc(-c3ccccc3)cc2)c[nH]c1=S,.,.,.,-5.2,-16.6,0.76,3.0,5.7
-7.7,C/C(=N\NC(=O)CNC(=O)C(c1ccccc1)c1ccccc1)c1ccc(C)cc1,-8.2,0.5,i,-6.3,.,.,.,.
32.4,COC1=CC(=O)C(OC)=C(OC)C1=O,16.1,1.3,i,.,-0.7,0.667,4.0,10.0
6.2,CCOc1ccccc1C(=O)NCC(=O)NCC(c1ccc(OC)cc1)N1CCOCC1 (stereo not drawn),12.2,0.0,i,-5.5,3.9,0.709,0.2,-9.3
7.5,CCc1ccc(NC(=O)c2cc(-c3ccc(F)cc3)on2)cc1,-1.8,-8.9,i,-5.0,2.3,0.697,0.6,-11.2
13.8,O=C1/C(=C/c2ccco2)Cc2ccccc21,5.4,-3.3,i,3.6,-19.3,0.698,1.9,-2.5
.,CN1CCC2(CC1)NC(=O)NC2=O,.,.,.,-12.7,0.2,0.702,1.9,-0.3
0.6,COc1ccc(CC(=O)Nc2nn(C)c3nc4c(C)cccc4cc23)cc1,2.7,3.0,i,-11.0,-29.9,0.696,4.3,-5.6
.,CCc1ccc(C(=O)OCC(=O)Nc2cccc(S(=O)(=O)NC3=NCCCCC3)c2)cc1,.,.,.,-2.8,4.3,0.65,3.3,6.2
.,Oc1ccc(N2Cc3ccccc3C2)cc1,.,.,.,83.7*,4.1,0.698,0.7,-0.7
.,CSCCC(NC(C)=O)C(=O)OCC(=O)N(c1ccccc1)c1ccccc1 (stereo not drawn),.,.,.,-11.1,3.2,0.747,1.4,5.2
.,CCN(C(C)=O)c1nnc(CSc2nc3ccccc3s2)s1,.,.,.,.,0.3,0.702,2.0,-13.4
1.0,CCn1c(=O)n(CC)c2cc(N3CCCC3)c(NC(=O)c3ccccc3F)cc21,2.4,0.5,i,.,-1.5,0.695,-4.5,18.4
-36.3,CC(C)Oc1ccc(CN2CCC2(C)C(=O)Nc2ccc3c(c2)OCO3)cc1 (stereo not drawn),-63.9,-11.9,i,.,.,.,3.2,.
-10.2,CC1CC(C)(C)CC2(C1)NC(=O)N(CC(=O)Nc1cc([N+](=O)[O-])ccc1F)C2=O (stereo not drawn),-5.4,-0.6,i,-1.6,-0.7,0.663,1.9,-6.5
.,COc1ccc(C(=O)NCC(=O)NCC2COc3ccccc3O2)cc1 (stereo not drawn),.,.,.,3.4,0.3,0.679,1.6,10.2
-10.6,O=C(CCC(=O)N1CCOc2ccc(Cl)cc21)NCCCN1CCC(Cc2ccccc2)CC1,-16.4,7.3,i,-4.5,-0.1,0.726,6.3,13.0
2.6,CC(=O)N1N=C(c2ccc(C)cc2)CC1c1ccco1 (stereo not drawn),3.5,-0.9,i,18.8,0.6,0.68,-6.0,3.4
-0.3,CCOC(=O)CC1COc2ccccc2N1C(=O)c1cccc([N+](=O)[O-])c1 (stereo not drawn),3.8,-0.3,i,-17.3,1.4,0.608,-1.5,-0.8
.,COc1ccc(NC(=O)CNS(=O)(=O)c2ccc(Cl)cc2)cc1,.,.,.,-13.2,0.5,0.733,-1.5,-0.6
.,O=C(N/N=C\c1ccc(Cl)s1)C1COc2ccccc2O1 (stereo not drawn),.,.,i,-4.4,.,.,-0.6,-3.4
.,COc1ccc(OC)c(-n2c(-c3cc(-c4ccc(F)cc4)n[nH]3)n[nH]c2=S)c1,.,.,.,42.1,0.8,0.705,1.5,-6.3
7.8,CC(C)CNS(=O)(=O)c1ccc(CCC(=O)N2CCC(C(N)=O)CC2)cc1,12.6,-1.7,i,4.1,2.3,0.667,0.0,3.2
-10.9,Cc1ccc(C)c(S(=O)(=O)N2CCN(C(=O)c3sccc3C)CC2)c1,-19.4,-1.3,i,.,.,.,-1.0,1.7
7.3,CC(=NCCN1CCN(C(C)=C2C(=O)c3ccccc3C2=O)CC1)C1=C(O)CC(C)(C)CC1=O,-3.1,-13.4,i,-2.8,-2.2,0.656,-2.9,-5.4
.,CCCCCCCCCCNC(=O)C(=O)Nc1ccccn1,.,.,.,-1.3,-0.5,0.758,0.0,19.0
-0.2,O=C(COC(=O)CN1C(=O)C2CCCCC2C1=O)NNC(=O)c1ccc(Cl)cc1 (stereo not drawn),-0.9,0.5,i,.,3.4,0.676,2.9,-5.9
.,Cc1nc2ccccc2n1CC(=O)NCCN1CCCC1,.,.,.,-1.5,0.8,0.736,0.5,2.4
-8.0,O=C(CN1CCN(Cc2ccc(F)cc2)CC1)Nc1nc2ccccc2s1,-13.5,10.7,i,-18.8,-0.4,0.639,0.8,8.8
0.1,CCCNC(=O)c1ccc(Cn2cc(-c3ccc(OC)cc3)nc2C(C)N)cc1 (stereo not drawn),-0.8,10.4,i,2.3,-1.5,0.675,5.0,-8.2
-13.6,CCOc1ccccc1OCC(=O)Nc1ccc(OC)c(S(=O)(=O)N2CCCCC2)c1,-25.2,2.9,i,0.8,3.5,0.73,-5.2,0.6
.,COCCNC(=O)Cn1c(=O)n(Cc2ccc(C(=O)NCc3ccco3)cc2)c(=O)c2ccccc21,.,.,.,0.7,0.3,0.682,-3.4,0.4
.,Cc1csc(NC(=O)COc2ccc3c(c2)CCC3)n1,.,.,i,48.6,2.7,0.685,4.1,0.9
-1.9,Cc1cc(C(=O)C(C)OC(=O)c2cnccn2)c(C)n1-c1ccccc1 (stereo not drawn),-8.6,-0.9,i,32.7,1.7,0.7,0.1,1.6
0.2,CCC1([N+](=O)[O-])COC(c2ccc(OC)cc2)OC1 (stereo not drawn),0.4,-1.3,i,.,0.5,0.632,-3.5,7.4
12.4,COc1cccc(NC2=C(Cl)C(=O)OC2OC(=O)c2ccco2)c1 (stereo not drawn),9.2,3.8,i,10.0,37.3*,0.733,2.0,-1.2
.,CCOC(=O)c1c(C)[nH]c(C(=O)COC(=O)c2cnc(C)cn2)c1C,.,.,.,3.8,1.7,0.704,-1.3,-0.7
7.7,O=C(CNC(=O)c1ccc(Br)cc1)NCC(=O)OCC(=O)c1ccc([N+](=O)[O-])cc1,12.3,0.1,i,-16.6,1.7,0.683,-1.9,-1.2
.,COCCn1c(SCC(=O)Nc2cccc(C)c2)nnc1C(C)C,.,.,.,.,7.6,0.676,-3.7,-0.3
.,CCCCCCNC(=O)c1c(O)c2cccc3c2n(c1=O)CCC3,.,.,.,2.3,-0.9,0.723,0.7,-2.5
.,CCC(C)(C)n1nnnc1C(c1cccc(C#N)c1)N1CCN(c2cc(C)ccc2C)CC1 (stereo not drawn),.,.,.,-1.1,1.4,0.692,1.0,0.1
3.1,COc1ccc(NC(=O)CSc2nc3c(c(=O)n2-c2ccc(C)cc2)SCC3)c(OC)c1,3.9,-6.7,i,-3.4,3.3,0.74,1.6,-4.7
.,CC1CN(C(=O)CN2C(=O)NC(C)(c3ccccc3)C2=O)CC(C)O1 (stereo not drawn),.,.,.,-9.4,-1.6,0.704,3.1,-6.2
14.5,O=C(CN1CCCCC1)NCC(=O)Nc1ccc(F)c(F)c1F,15.9,-0.4,i,-4.9,2.2,0.688,2.0,-8.7
.,O=C(CSc1nnc(-c2ccc(Cl)cc2)n1Cc1ccco1)NCc1ccc2c(c1)OCO2,.,.,.,-2.1,0.9,0.703,-2.2,-8.2
.,COc1ccc(CNC(=O)COC(=O)C2CCN(S(=O)(=O)c3ccccc3C(F)(F)F)CC2)cc1,.,.,.,-43.6,2.4,0.653,-2.3,-6.0
2.6,C/C(Cc1ccccc1)=N/NC(=O)CCCC(=O)N/N=C(/C)Cc1ccccc1,2.7,-1.7,.,-14.7,.,.,0.8,-7.8
-2.1,O=C(NCC(=O)N(c1cccnc1)C(C(=O)NC1CCCCC1)c1ccccc1)c1ccco1 (stereo not drawn),0.0,-0.4,i,-1.9,-1.1,0.693,1.5,-6.3
-8.1,COc1ccccc1-c1nc2c(c(SCC(=O)N3CCCCC3)n1)Cc1c(CO)cnc(C)c1O2,-10.3,1.6,i,30.1,4.4,0.655,-0.5,11.4

Five compounds already listed, sorted by number of heavy atoms, ascending:
Ecoli rRNA inh,structure,Ecoli rRNA inh OD600,Ecoli rRNA inh RFP,FGF22 binding,ALR inh,UCH37 DUB inh,Ecoli growth,HNF4A DNA FP,Beta2AR agonist
14.5,O=C(CN1CCCCC1)NCC(=O)Nc1ccc(F)c(F)c1F,15.9,-0.4,i,-4.9,2.2,0.688,2.0,-8.7
2.6,C/C(Cc1ccccc1)=N/NC(=O)CCCC(=O)N/N=C(/C)Cc1ccccc1,2.7,-1.7,.,-14.7,.,.,0.8,-7.8
3.1,COc1ccc(NC(=O)CSc2nc3c(c(=O)n2-c2ccc(C)cc2)SCC3)c(OC)c1,3.9,-6.7,i,-3.4,3.3,0.74,1.6,-4.7
.,O=C(CSc1nnc(-c2ccc(Cl)cc2)n1Cc1ccco1)NCc1ccc2c(c1)OCO2,.,.,.,-2.1,0.9,0.703,-2.2,-8.2
.,COc1ccc(CNC(=O)COC(=O)C2CCN(S(=O)(=O)c3ccccc3C(F)(F)F)CC2)cc1,.,.,.,-43.6,2.4,0.653,-2.3,-6.0

(more compounds)
Ecoli rRNA inh,structure,Ecoli rRNA inh OD600,Ecoli rRNA inh RFP,FGF22 binding,ALR inh,UCH37 DUB inh,Ecoli growth,HNF4A DNA FP,Beta2AR agonist
1.1,CCCCCCCCCC[n+]1cccc(C(=O)N(CC)CC)c1,-3.8,5.8,i,-3.0,1.4,0.681,-1.2,-6.4
.,COc1cc(/C=N/NC(=O)C(Cc2c[nH]c3ccccc23)NC(=O)OCc2ccccc2)cc([N+](=O)[O-])c1O (stereo not drawn),.,.,.,2.3,.,.,-4.5,-3.1
-1.8,CCn1c(=O)c(C(=O)NNC(=O)c2ccccc2F)c(O)c2ccccc21,-1.0,3.1,i,-7.1,-1.8,0.649,3.8,-0.4
3.3,COc1ccc(C2(C)NC(=O)N(CC(=O)NC3CCCC3)C2=O)cc1OC (stereo not drawn),10.5,3.0,i,.,2.0,0.653,1.6,-2.6
.,CCCC(=O)Nc1ccccc1N1CCN(C(=O)c2ccccc2)CC1,.,.,.,2.0,4.8,0.727,1.2,-7.5
5.9,COCCn1nnnc1C(c1cc2cc(OC)c(OC)cc2[nH]c1=O)N1CCN(c2ccc(O)cc2)CC1 (stereo not drawn),14.1,1.0,.,.,-154.9,0.69,0.9,-1.1
